Bioassay records from PubChem.
Six1-Eya2 inh – inhibitors of human Six1/Eya2 interaction. Q15475+O00167. AlphaScreen GST-Six1/His-Eya2 binding, biochemical; hits give low values; control for the full effect not named in the record. activity change, % (test concentration not listed). actives 0.56% (n = 360,000); in the data active = activity change below about -65%; inconclusive = about -30% to -65%; inactive = above about -30%; also: % is scaled to controls: 0 for no effect and ±100 for the full control effect; compound concentration not given in the record
Target sequence (O00167 whole entry, looked up): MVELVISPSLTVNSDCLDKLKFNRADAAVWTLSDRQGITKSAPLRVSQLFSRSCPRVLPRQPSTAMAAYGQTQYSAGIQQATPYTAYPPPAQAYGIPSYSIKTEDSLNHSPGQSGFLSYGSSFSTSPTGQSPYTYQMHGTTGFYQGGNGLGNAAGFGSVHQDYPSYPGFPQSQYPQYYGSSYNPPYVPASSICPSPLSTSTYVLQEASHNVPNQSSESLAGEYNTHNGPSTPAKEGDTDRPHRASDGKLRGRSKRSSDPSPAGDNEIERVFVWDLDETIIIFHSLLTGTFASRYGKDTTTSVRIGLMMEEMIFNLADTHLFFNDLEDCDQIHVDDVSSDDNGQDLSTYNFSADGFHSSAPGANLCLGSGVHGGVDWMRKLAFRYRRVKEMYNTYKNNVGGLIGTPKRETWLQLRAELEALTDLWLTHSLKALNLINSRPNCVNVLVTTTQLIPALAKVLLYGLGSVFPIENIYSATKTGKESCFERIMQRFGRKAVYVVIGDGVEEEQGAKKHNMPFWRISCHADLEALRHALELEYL
Target sequence (Q15475 whole entry, looked up): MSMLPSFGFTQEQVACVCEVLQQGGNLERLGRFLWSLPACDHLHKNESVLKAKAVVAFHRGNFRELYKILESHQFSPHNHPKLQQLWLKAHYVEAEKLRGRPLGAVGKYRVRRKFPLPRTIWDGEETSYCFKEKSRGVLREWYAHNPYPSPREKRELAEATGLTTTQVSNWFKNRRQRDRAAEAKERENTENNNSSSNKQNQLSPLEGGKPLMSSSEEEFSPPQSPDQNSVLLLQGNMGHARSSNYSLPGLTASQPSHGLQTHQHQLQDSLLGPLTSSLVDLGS
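Homogeneous AlphaScreen proximity assay pairing GST-Six1 with His-tagged Eya2 (added as 5X mix: 250 nM and 500 nM) in 50 mM Tris pH 8.0, 300 mM NaCl, 1 mM TCEP. Glutathione donor and nickel acceptor beads; 1 h, 37 °C, dark.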
Sfp PPTase inh – inhibitors of Bacillus subtilis Sfp phosphopantetheinyl transferase. Biochemical Sfp PPTase activity, qHTS. Q9F4F7. actives 3.5% (n = 310,000). AID 1490. Potency, µM, without a hit: max response, negative = inhibition, hits mostly inhibitors; active = well fitted inhibition curve with a large enough effect; inconclusive = small, poorly fitted or top-dose-only effect, or another doubt; inactive = no such curve, though single readings can be large or run the other way;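 also: the enzyme is Sfp with the accession as filed and its product quenches rhodamine fluorescence; potency is read from the fitted curve at half-maximal effect; 0% = enzyme reaction without inhibitor and -100% = no enzyme wells; top concentration of the series not given in the record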
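Compounds were incubated with enzyme (final 15 nM) for 15 min at room temperature before substrate addition started the reaction. Fluorescence at 525 nm excitation, 598 nm emission was recorded immediately and after 30 minutes.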
D2 ag – activates the human D2 dopamine receptor; actives 0.084% (n = 360,000); activation, % (test concentration not listed); DiscoveRx PathHunter D2 beta-arrestin, luminescence, 90 min; 100% = 57 uM dopamine signal; in the data active = activation above about 40%; inconclusive = about 15% to 40%; inactive = below about 15%; also: compound concentration not given in the record; the text of the record calls up to 30% inactive
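Agonist mode: compounds alone added to overnight-plated D2 PathHunter cells for 90 min at 37 C, with 57 uM final dopamine (EC100) defining full response. Beta-arrestin recruitment detected by chemiluminescent reagent, read after 1 h at ambient temperature.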
PINK1 expr mod – modulators of PINK1 expression | Potency, µM (top dose mostly 76.6 µM), for inactives: at the highest dose activation (PINK1 increase), most hits filed as activators | actives 0.2% (n = 410,000) | PINK1 immunofluorescence, high-content cytometry, 24 h; active = well fitted activation curve with a large enough effect; inconclusive = small, poorly fitted or top-dose-only effect; inactive = flat fitted curve, though single readings scatter; cell line not stated here;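 also: potency is read from the fitted curve at half-maximal effect; % of control where 0% means no effect; nearly all actives have a fitted effect of over 65% in size; a mitochondrial uncoupler was the plate control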
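Stable cell line treated 24 h with compounds at 5 concentrations (CCCP controls), then fixed and immunostained for PINK1 plus nuclear and cell stains; PINK1 immunofluorescence quantified by laser-scanning microplate cytometry.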
CtBP-E1A blk – blocks the CtBP interaction with E1A; AlphaScreen GST-E1A/His-CtBP binding, 1536-well; hits give low values; control for the full effect not named in the record; actives 0.49% (n = 340,000); activity change, % (test concentration not listed); in the data active means activity change below about -65%; inconclusive means about -30% to -65%; inactive means above about -30%; also: % is scaled to controls: 0 for no effect and ±100 for the full control effect; compound concentration not given in the record
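In 5 uL wells, 23 nL compound meets equimolar GST-E1A and His-CtBP (5X stock 125 nM each) for 2 h, 37 °C. Beads (5X, 50 ug/mL) then 1 h, 37 °C, dark.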
TRPV1 PAM – enhances activation of the human vanilloid receptor TRPV1. Q8NER1. TRPV1-expressing cells, Fluo-8 calcium influx, capsaicin EC20 potentiation; host cell line not named in the record; control for the full effect not named in the record. potentiation, % at 8.33 µM. actives 0.02% (n = 320,000); active means potentiation above 80%; inconclusive means 30% to 80%; inactive means below 30%; also: 0% is about no effect
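Cells expressing TRPV1 were dye-loaded with Fluo-8 and read kinetically: 10 s baseline, 3 min after compound (agonist portion), then 2 min after EC20 capsaicin (allosteric enhancer portion). Calcium-bound dye fluorescence at 480/520 nm.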
D2 potentiator – human D2 receptor positive allosteric modulation; DiscoveRx D2 beta-arrestin cells, luminescence, 90 min; 100% = 57 uM dopamine signal; AID 624464; P14416; potentiation, % (concentration not given with the values); actives 0.23% (n = 360,000); active = potentiation of 50% or more; inconclusive = 30% to 50%; inactive = 30% or less;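 also: compound concentration not given in the record; tested on top of an EC20 dose of dopamine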
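PathHunter D2 cells, attached overnight at 37 deg C, received compound in DMSO plus dopamine at EC20 (50 nM final) for 90 min at 37 deg C. Beta-arrestin recruitment was read as luminescence after 1 h with detection reagent at ambient temperature.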
The depositor's hits bear a star; ? = inconclusive; / = not tested or not shown; [ ] = dose if it differs, or a comment.

Every second line gives: Six1-Eya2 inh, Sfp PPTase inh, D2 ag, PINK1 expr mod, CtBP-E1A blk, TRPV1 PAM, D2 potentiator
1) CCNC(=O)c1cc2c(c(-c3cccc(-c4ccccc4F)c3)n1)[C@H](CCO)N(C(=O)CC)C2
 : -4, /, /, 4.0%, 5, /, /
2) COc1cccc(C2=CC(=O)CCC2)c1OC
 : 4, /, 0.1, 1.8%, 9, /, -2
3) O=C(CCNc1cc(Cl)cc(Cl)c1)c1cccs1
 : 19, -7%, 2.2, /, 10, -8, 4
4) CCCCC(=O)NC1(C(F)(F)F)NC(=O)N(C)C1=O (stereo unspecified)
 : 1, 12%, 0.8, 0.1%, 10, 7, -1
5) Nc1cccc(S(=O)(=O)Nc2ccc(SC(F)F)cc2)c1
 : -3, 19%, -1.9, 0.1%, -2, -27, -5
6) CC(=O)c1cccc(N(CC(=O)Nc2cccnc2)S(C)(=O)=O)c1
 : 4, 3%, 1.0, /, 6, -3, -15
7) CCC1=NN2C(=N)/C(=C/c3ccc(OS(=O)(=O)c4ccc(C)cc4)c(OC)c3)C(=O)N=C2S1
 : -5, -5%, -3.1, 3.1%, -8, -6, -1
8) CC(C)COc1ccc(C(=O)Nc2ccc(NC(=O)c3ccco3)c(Cl)c2)cc1
 : 2, 6%, 0.4, 3.8%, 3, -34, -9
9) COc1cc(C)c(S(=O)(=O)NCc2cccnc2)cc1C
 : 2, 9%, 5.1, 0.6%, /, 5, 0
10) Cc1cc(=O)[nH]c(SCc2nc3ccc([N+](=O)[O-])cc3[nH]2)n1
 : -1, -8%, -7.1, 0.2%, -5, 1, -2
11) COc1ccc(C(C)=O)cc1CSc1nncn1-c1ccccc1
 : 0, 5%, -2.2, 5.9%, 8, 5, -13
12) C=CCSc1nc2sc3c(c2c(=O)n1CC)CCc1ccccc1-3
 : 8, 1.8µM*, -2.9, 1.3%[38.3 µM], 11, 16, -2
13) COc1ccc(/C=C/C(=O)OCC(=O)NC(C)CCc2ccccc2)cc1 (stereo unspecified)
 : 3, /, -2.9, 3.4%, -3, /, -23
14) Cc1ccc(C(=O)N(CN2CCCC2=O)c2ccccc2)cc1C
 : 7, 9%, -1.8, 0.6%[38.3 µM], -5, -12, 5
15) CCOC(=O)c1cc2c(n(-c3ccccc3)c1=O)CC(C)(C)CC2=O
 : 1, 5%, 1.6, ?, 8, 0, -8
16) CC1CN(C(=S)NC(=O)C2CCCCC2)CC(C)O1 (stereo unspecified)
 : 10, 15%, -1.4, 0.8%, 5, 4, -13
17) COc1cc(Br)cc(/C=C/c2ccc3cccc(O)c3n2)c1O
 : -4, 8%, 6.5, 7.5%, /, 5, -10
18) COc1cc(/C=N\Nc2nc3ccccc3o2)cc(OC)c1OC
 : -6, -2%, 5.1, -1.3%[38.3 µM], 8, -4, -12
19) N#CC1=C(Nc2ccccc2)SC=C(c2ccc(Br)cc2)N=C1N1CCOCC1
 : -8, 5%, -3.4, 7.9%, -4, 10, -16
20) Cc1ccc(Cn2ccc(O)c(Cc3ccccc3)c2=O)cc1
 : -5, 26%, -6.0, 14%, /, -10, -1

Complete entries, looked up by structure.
CC(=O)c1cccc(N(CC(=O)Nc2cccnc2)S(C)(=O)=O)c1 is listed as Six1-Eya2 inh: 4; Sfp PPTase inh: 3%; D2 ag: 1.0; PINK1 expr mod: /; CtBP-E1A blk: 6; TRPV1 PAM: -3; D2 potentiator: -15
Cc1ccc(Cn2ccc(O)c(Cc3ccccc3)c2=O)cc1 is listed as Six1-Eya2 inh: -5; Sfp PPTase inh: 26%; D2 ag: -6.0; PINK1 expr mod: 14%; CtBP-E1A blk: /; TRPV1 PAM: -10; D2 potentiator: -1

Further entries:
Every second line gives: Six1-Eya2 inh, Sfp PPTase inh, D2 ag, PINK1 expr mod, CtBP-E1A blk, TRPV1 PAM, D2 potentiator
21) COc1cc([C@@H]2CC=C(C(=O)O)[C@H](c3cccc(Cl)c3)N2S(=O)(=O)c2ccc(C)cc2)cc(OC)c1OC
 : 3, /, -2.9, 0.9%, /, -18, -2
22) O=C(COC(=O)c1cc(-c2ccccc2)nc2ccccc12)Nc1ccc2c(c1)OCO2
 : -11, -10%, 4.6, -1.7%, -15, 2, -6
23) COc1ccc(-c2[nH]c(-c3ccc(C)cc3)nc2SCC(=O)NC2CCCC2)cc1
 : -2, 10%, -2.5, 3.2%, -21, 19, -13
24) Cc1cc(C)cc(OCC(=O)NC2CCCc3ccccc32)c1 (stereo unspecified)
 : 28, -8%, -6.3, 14%, -1, 6, -3
25) O=C(Oc1ccccc1-c1nnco1)c1ccccc1
 : -4, 6%, -3.8, -0.5%, -1, 16, 10
26) COC(=O)C1=C(C)N(c2ccccc2)/C(=C/c2ccco2)C1=O
 : 7, -9%, -3.2, -1.4%, 2, -17, 4
27) Cc1ccc(C(=O)CC(=O)c2cc(Cl)ccc2O)cc1
 : -10, 26%, -7.3, 8.5%[38.3 µM], -2, -30, -30
28) Cc1ccc(NC(=O)C(C)OC(=O)CCNS(=O)(=O)c2ccc(C)cc2)cc1 (stereo unspecified)
 : 16, 2%, -3.2, -3.0%, -3, -1, -22
29) c1ccc(CNCCCn2cnc3c(OCc4ccccc4)ncnc32)cc1
 : -6, /, -2.9, -0.7%, ?, /, /
30) Cc1nnc(C)n1/N=C/c1ccc(-c2ccccc2Cl)o1
 : 0, -19%, -17, 2.7%, -7, -10, -6
31) Cc1onc(-c2c(F)cccc2Cl)c1C(=O)N(C)CCc1ccccn1
 : 4, 20%, 1.3, 0.3%, -16, 5, -11
32) Cn1c(=O)c2c(ncn2CCC(=O)N/N=C/c2ccccc2)n(C)c1=O
 : 2, 16%, -2.9, -0.1%, 0, -1, -3
33) NS(=O)(=O)c1ccc(CCNC(=O)C(=O)C2C(=O)Nc3ccccc32)cc1 (stereo unspecified)
 : -8, 4%, 2.7, 3.7%, 3, -12, -2
34) CC1C(=O)NN=C1C(=O)N/N=C\C(Br)=C\c1ccccc1 (stereo unspecified)
 : -14, 50µM*, 3.2, 1.5%, ?, 22, -1
35) N#Cc1cccc(NC(=O)CNc2cc(S(=O)(=O)N3CCOCC3)ccc2N2CCCC2)c1
 : -17, /, -2.9, -0.8%, -3, 10, -8
36) Cc1ncc(CN2CCC(C(=O)Nc3ccc(Oc4cccnc4)cc3)CC2)cn1
 : 20, 14%, 0.5, -0.2%, -18, 7, -11
37) O=C(CS(=O)(=O)c1cn(Cc2ccccc2Cl)c2ccccc12)N1CCOCC1
 : 4, -6%, 0.8, 3.9%[38.3 µM], 7, -15, 0
38) CCOC(=O)C1CCN(CC(O)COc2ccc(C(C)=O)cc2)CC1 (stereo unspecified)
 : -6, 6%, -6.5, -0.1%, 1, /, 7
39) Cc1ccccc1-n1c(=O)cc(N2CCN(C(=O)c3ccco3)CC2)[nH]c1=O
 : -6, 79µM*, -3.3, 0.7%, 3, -16, -1
40) Cc1ccccc1CN1CCCC(C(=O)Nc2ccccc2Oc2cccnc2)C1 (stereo unspecified)
 : -5, 10%, -1.0, -2.3%, /, -9, -14

Ten structures from above, ordered by molecular weight, smallest number first:
Every second line gives: Six1-Eya2 inh, Sfp PPTase inh, D2 ag, PINK1 expr mod, CtBP-E1A blk, TRPV1 PAM, D2 potentiator
25) O=C(Oc1ccccc1-c1nnco1)c1ccccc1
 : -4, 6%, -3.8, -0.5%, -1, 16, 10
30) Cc1nnc(C)n1/N=C/c1ccc(-c2ccccc2Cl)o1
 : 0, -19%, -17, 2.7%, -7, -10, -6
9) COc1cc(C)c(S(=O)(=O)NCc2cccnc2)cc1C
 : 2, 9%, 5.1, 0.6%, /, 5, 0
38) CCOC(=O)C1CCN(CC(O)COc2ccc(C(C)=O)cc2)CC1 (stereo unspecified)
 : -6, 6%, -6.5, -0.1%, 1, /, 7
40) Cc1ccccc1CN1CCCC(C(=O)Nc2ccccc2Oc2cccnc2)C1 (stereo unspecified)
 : -5, 10%, -1.0, -2.3%, /, -9, -14
28) Cc1ccc(NC(=O)C(C)OC(=O)CCNS(=O)(=O)c2ccc(C)cc2)cc1 (stereo unspecified)
 : 16, 2%, -3.2, -3.0%, -3, -1, -22
23) COc1ccc(-c2[nH]c(-c3ccc(C)cc3)nc2SCC(=O)NC2CCCC2)cc1
 : -2, 10%, -2.5, 3.2%, -21, 19, -13
37) O=C(CS(=O)(=O)c1cn(Cc2ccccc2Cl)c2ccccc12)N1CCOCC1
 : 4, -6%, 0.8, 3.9%[38.3 µM], 7, -15, 0
1) CCNC(=O)c1cc2c(c(-c3cccc(-c4ccccc4F)c3)n1)[C@H](CCO)N(C(=O)CC)C2
 : -4, /, /, 4.0%, 5, /, /
7) CCC1=NN2C(=N)/C(=C/c3ccc(OS(=O)(=O)c4ccc(C)cc4)c(OC)c3)C(=O)N=C2S1
 : -5, -5%, -3.1, 3.1%, -8, -6, -1

The list goes on:
Every second line gives: Six1-Eya2 inh, Sfp PPTase inh, D2 ag, PINK1 expr mod, CtBP-E1A blk, TRPV1 PAM, D2 potentiator
41) CC(C)(CN=C1NS(=O)(=O)c2ccccc21)CNC(=O)CN1C(=O)c2ccccc2C1=O
 : 0, -13%, -3.1, 1.9%, 4, -1, -8
42) O=C(NCCCc1ccccc1)c1cccc(NC(=O)C2CCCCC2)c1
 : 9, /, -1.2, 0.9%, -10, /, -6
43) CC(OC(=O)C1CCN(S(=O)(=O)c2ccccc2C(F)(F)F)CC1)C(=O)N(C)Cc1ccccc1 (stereo unspecified)
 : 3, 7%, 0.4, 0.1%, -1, -1, -8
44) O=C(O)C(=Cc1ccccc1Cl)c1ccccc1
 : -27, /, -4.1, 0.3%, -4, /, -9
45) COc1ccc(CCN2C(=O)CSC2=Nc2ccc(C)cc2C)cc1OC
 : 3, -18%, -5.7, -1.9%, 0, 3, -22
46) CC(=O)Nc1cccc(NC(=O)CSc2nnc3ccccn23)c1
 : 2, /, -1.2, 0.9%, -1, /, -18
47) Cc1ccc(-n2nc(CN3CCOCC3)c(-c3ccccc3)c2N)cc1Cl
 : -9, -4%, -1.0, 0.2%, -11, 13, -4
48) COCCNc1nc(NCc2cccc(OC)c2)c2sc(-c3ccccc3)cc2n1
 : 3, /, -3.8, ?, -8, /, -15
49) CC(CCc1ccccc1)NC(=O)CN(C)Cc1ccccc1F (stereo unspecified)
 : 1, -11%, -1.3, 0.1%, -3, -18, -9
50) O=[N+]([O-])c1ccc(/C=C/c2ccncc2)cc1
 : -1, 14%, 15, -0.6%, /, -21, -9
